# Source: PubChem (National Center for Advancing Translational Sciences (NCATS))
# VACV mCherry inh: inhibitors of vaccinia virus infection (mCherry reporter signal). Potency, µM (titrated, usually from 36.5 µM), for inactives: at the highest dose activity change, negative = inhibition, hits mostly inhibitors. Vaccinia virus mCherry reporter infection, fluorescence; about a quarter of the inactives have no number. 310,000 tested, 0.63% active; active = well fitted inhibition curve with a large enough effect; inconclusive = small, poorly fitted or top-dose-only effect; inactive = no such curve, though single readings can be large or run the other way; tested in A549 cells; further: nearly all actives have a fitted effect of over 35% in size; inactives centre near -10
# VACV Venus inh: vaccinia inhibition (Venus reporter). Vaccinia virus Venus reporter expression, fluorescence. Potency, µM (top dose mostly 36.5 µM), inactives show at the top dose activity change, negative = inhibition, usual class: inhibitors. 330,000 tested, 0.46% active; active means well fitted inhibition curve with a large enough effect; inconclusive means small, poorly fitted or top-dose-only effect; inactive means no such curve, though single readings can be large or run the other way; tested in A549 cells; further: nearly all actives have a fitted effect of over 30% in size; inactives centre near -10
# * hit, by the source's call; i = inactive; ? = inconclusive; nt = not tested or not shown; & = joins results of further samples. On the % scale 0 is the no-effect control and ±100 the full control effect; potency means the concentration at half of the fitted maximal effect.
No.	Compound	VACV Venus inh	VACV mCherry inh
1	Nc1nnc(SCC(=O)Nc2cccnc2Cl)s1	-13%	i
2	Cc1ccc(-c2csc3ncnc(NCCN4CCOCC4)c23)cc1	-18%	-23%
3	O=c1c2ccccc2nc(/C=C/c2ccc(O)cc2)n1CCc1ccccc1	-18%	?
4	CC(=O)Nc1nc2cc(C(N)=O)ccc2s1	-15%	?
5	COc1cccc(OCC(=O)NNC(=O)Cc2cccs2)c1	-10%	-11%
6	COc1cc(/C=C2/NC(=O)N(c3cccc(Cl)c3)C2=O)ccc1O	-25%	-28%
7	O=C1OCCC1Sc1nnc(-c2ccc(O)cc2)o1 (stereo unspecified)	-8%	nt
8	CCOC(=O)c1cc(-c2ccccc2)n(-c2cccc(C(=O)NC(C)(C)C)c2)c1C	-19%	-2%
9	O=[N+]([O-])c1cccnc1N1CCN(c2ccccc2F)CC1	-10%	i
10	CCCC(=O)Nc1cc(C)c(NC(=O)C23CC4CC(CC(C4)C2)C3)cn1	-14%	-2%
11	COc1ccc(Cl)cc1CC=NNC(=O)c1cccc(C)c1O	-10%	i
12	CCc1ccc(CNC(=O)CN(c2ccc(C)cc2)S(=O)(=O)N(C)C)cc1	-9%	-9%
13	COC(=O)C1C(C(=O)O)C2(Cl)C(Cl)=C(Cl)C1(Cl)C2(Cl)Cl (stereo unspecified)	2%	-21%
14	CC(C)(C)OC(=O)NC(Cc1ccccc1)C(=O)NCCCC(=O)O (stereo unspecified)	-8%	-10%
15	CC(C)(C)Cc1c(-c2ccc(Cl)cc2)nc2ccc(Cl)cn12	?	?
16	Cc1ccc(CNC(=O)C(=O)NCCCn2ccnc2)cc1	-4%	-13%
17	CC(=O)Nc1ccc(S(=O)(=O)Nc2nc3ccccc3nc2Nc2ccc3ccccc3c2)cc1	-20%	-7%
18	CC(C)CCNC(=O)c1cccc(Cl)c1	0%	-8%
19	c1cc2c(cc1C1CCCCC1)c1c3n2CCN=C3CCC1	-28%	nt
20	Cc1ccccc1CNC(=O)CC1C(=O)NCCN1Cc1c(F)cccc1Cl (stereo unspecified)	-8%	-11%
21	COc1ccc(-c2csc(N(CCc3ccccc3)C(=O)COc3ccccc3)n2)cc1	-8%	-20%
22	CCN(CC)CCN(C)C1CCC(c2ccccc2)CC1 (stereo unspecified)	-11%	-12%
23	COC(=O)c1[nH]c2cccc(C)c2c1NC(=O)CN1CCN(c2ccccc2OC)CC1	?	nt
24	CC(=O)Nc1ccc(S(=O)(=O)N2CCSC2c2ccc(C)cc2)cc1 (stereo unspecified)	?	?

# Complete entries from above.
# CC(=O)Nc1ccc(S(=O)(=O)N2CCSC2c2ccc(C)cc2)cc1 (stereo unspecified) across the screens: VACV Venus inh = ?; VACV mCherry inh = ?
# COC(=O)c1[nH]c2cccc(C)c2c1NC(=O)CN1CCN(c2ccccc2OC)CC1 across the screens: VACV Venus inh = ?; VACV mCherry inh = nt

# Continuation:
No.	Compound	VACV Venus inh	VACV mCherry inh
25	COc1ccc(SC[C@H](C)CN2CC[C@H](C(C)(C)C)CCC2=O)cc1	-13%&0%	0%
26	CCn1c2ccccc2c2cc(NC(=O)C(=O)NCC3CCCO3)ccc21 (stereo unspecified)	-27%	-9%
27	CC1CCCN(C(=O)COC(=O)CNC(=O)c2ccc(Br)cc2)C1 (stereo unspecified)	4%	-14%
28	O=C(Cc1c[nH]c2ccccc12)N/N=C/c1ccc(F)cc1	-17%	?
29	O=C(c1cc(-c2ccccc2Cl)nc2ccccc12)N1CCOCC1	-27%	-3%
30	CCOC(=O)C1(Cc2ccccc2C(F)(F)F)CCN(C2CCN(C(C)=O)CC2)CC1	-3%	i
31	COc1cccc(CN(C)C[C@@H]2OCc3cnnn3CCCC(=O)N([C@H](C)CO)C[C@H]2C)c1	-23%	i
32	CCCN1C(=O)/C(=C2\SC(N3CCCCC3)=NC2=O)c2ccccc21	?	?
33	O=C(COc1ccccc1)N1CCN(c2ccccc2)CC1	5%	i
34	COc1ccc(C(=O)N2CCC(C(=O)O)CC2)c2ccccc12	-10%	i
35	COc1ccc(N2CCN(C(=O)CCCn3nnnc3CN3CCOCC3)C(C)C2)cc1 (stereo unspecified)	-12%	-11%
36	CCn1c(C)cs/c1=N\C(=S)Nc1ccccc1C	-10%	-14%
37	Cc1ccc(S(=O)(=O)CCC(=O)OCC(=O)N2c3ccccc3CC2C)cc1 (stereo unspecified)	-13%	i
38	Cc1cccc(N(CC(=O)NCC2CCCO2)C(=O)CNS(=O)(=O)c2ccc(Cl)cc2)c1 (stereo unspecified)	-1%	-5%
39	OCCNc1c2ccccc2nc2ccccc12	?	?
40	NC(=O)CNC(=O)[C@@H]1CC2(CC(c3cccc(Br)c3)=NO2)CN1C(=O)c1ccc(Br)cc1 (stereo partly specified)	-11%	i
41	NC(Cc1ccc(C(F)(F)F)cc1)c1csc(Nc2cc(NCc3ccco3)ncn2)n1 (stereo unspecified)	?	?
42	CSc1ccc(/C=C/c2cc(=O)c3ccccc3[nH]2)cc1	-13%	-17%
43	CCn1c(SCC(=O)Nc2ccc(S(=O)(=O)Nc3onc(C)c3C)cc2)nnc1-c1ccccc1	1%	-12%
44	CCOc1ccccc1Nc1nnc(-c2cc3cc(OC)ccc3oc2=O)s1	?	?
45	CC1(C)C=C(c2ccc(C=O)s2)CC(C)(C)N1C=O	-8%	-15%
46	Cc1cccc(C(=O)NCCC(=O)Nc2ccc(C#N)cc2)c1	0%	i
47	N=C(N)SCCN	-5%&-14%	-20%
48	COC(=O)c1sc2cccc(F)c2c1S(=O)(=O)N1CCN(c2ccc(F)cc2)CC1	-13%	-12%
49	CCOC(=O)/C(N=Nc1c(C)n(C)n(-c2ccccc2)c1=O)=C(/O)c1ccccc1	-11%	-3%
50	Cc1ccccc1-n1c(-c2ccc3ccccc3n2)n[nH]c1=S	3%	-7%
51	CCOc1ncccc1C(=O)Nc1cccc(C(=O)Nc2cccc(S(=O)(=O)CCO)c2)c1	-23%	-14%
52	COc1ccc(-c2[nH]nc3c2C(c2ccoc2)C(C#N)=C(N)O3)cc1 (stereo unspecified)	-6%	nt
53	C/C(=N\NS(=O)(=O)c1ccc(Br)cc1)c1ccncc1	-7%	-25%
54	COc1cccc(N2CCN(C(=O)c3cc4cc5cc(C)ccc5nc4s3)CC2)c1	-3%	-12%
55	COc1cccc(CC(=O)Nc2cc(S(=O)(=O)N3CCOCC3)ccc2OC)c1	7%	-14%
56	Cc1ccc2nc(SCC(=O)NCc3ccco3)c(C#N)cc2c1	?	i
57	COCCNC(=O)c1ccccc1NC(=O)CSc1ccc(C)cc1	-14%	-18%
58	Cc1ccccc1CN1CCCN(Cc2ccc(Cl)cc2)S1(=O)=O	-22%	i
59	Cc1ccc(-c2nc3ncccc3o2)cc1NC(=O)COc1ccccc1	-22%	-3%
60	CC(C)(C)S(=O)N1Cc2cc(CO)ccc2[C@H]1CCO (stereo partly specified)	-4%	-25%
61	Cc1onc(-c2ccccc2)c1C1=N/C(=C\c2ccccc2F)C(=O)O1	3%	i
62	O=C(NCCc1c[nH]c2ccccc12)Nc1ccccc1C(F)(F)F	-11%	-21%
63	O=[N+]([O-])c1ccc(/C=N/Nc2ccnc3cc(Cl)ccc23)o1	?	16µM*
64	O=C(NCc1ccccc1)C(c1ccc(-c2ccccc2)cc1)n1c(=O)c(-c2cc3ccccc3[nH]2)nc2ccccc21 (stereo unspecified)	-10%	-8%
65	COc1ccc(N(C(=O)c2cnccn2)C(C(=O)NC2CCCCC2)c2ccccc2)cc1 (stereo unspecified)	-14%	-12%
66	Cc1cc(N2CCOCC2)nc(SCC(=O)c2ccccc2)n1	-15%	i
67	O=C(CSc1nnc(-c2ccccc2O)o1)Oc1ccc(OCc2ccccc2)cc1	7%	19%
68	O=C(c1ccco1)N1CCN(C(c2ccccc2F)c2nnnn2CC2CCCO2)CC1 (stereo unspecified)	-10%	nt
69	CCN1C(=O)N[C@@H](CCc2ccccc2)[C@@H](C(=O)OC)[C@H]1C	-15%	-26%
70	COc1ccc(N2CCN(S(=O)(=O)CCNC(=O)Cc3ccc(Cl)cc3)CC2)cc1	-1%	-11%
71	COc1ccc(OCC(O)CN2CCN(c3ccccc3)CC2)cc1 (stereo unspecified)	-6%	-5%
72	Cc1cc(C(=O)N2CCC(Cc3ccccc3)CC2)ccc1[N+](=O)[O-]	-16%	-11%

# Exported with each value named: part of the list above.
48: COC(=O)c1sc2cccc(F)c2c1S(=O)(=O)N1CCN(c2ccc(F)cc2)CC1
  VACV Venus inh = -13%	VACV mCherry inh = -12%

44: CCOc1ccccc1Nc1nnc(-c2cc3cc(OC)ccc3oc2=O)s1
  VACV Venus inh = ?	VACV mCherry inh = ?

38: Cc1cccc(N(CC(=O)NCC2CCCO2)C(=O)CNS(=O)(=O)c2ccc(Cl)cc2)c1 (stereo unspecified)
  VACV Venus inh = -1%	VACV mCherry inh = -5%

# More entries:
No.	Compound	VACV Venus inh	VACV mCherry inh
73	COC(=O)NNC(=O)c1cccc(C)c1	-11%	i
74	Cc1ccc2nc3c(cc(C#N)c(=O)n3-c3nnc(SCc4ccccc4Cl)s3)c(=O)n2c1	5%	0%
75	CC(NCCN(C)C)C1CCC2C3CCc4cc(O)ccc4C3CCC12C (stereo unspecified)	-18%	-16%
76	CCC1(C)CC(C#N)(C#N)C(=O)NC1=O (stereo unspecified)	-3%	11%
77	Cc1ccc(Cn2c(C)c3cnn(CC(=O)NCCN4CCOCC4)c(=O)c3c2C)cc1	2%	14%
78	C=CCc1ccc(OCCCCOc2ccc(C(=O)O)cc2)c(OC)c1	-2%	-1%
79	O=C(NNc1nc2ccccc2s1)C1CC1	-6%	-15%
80	CCC(=O)N1CC2(CC(c3cccc([N+](=O)[O-])c3)=NO2)C[C@H]1C(=O)NCC(N)=O (stereo partly specified)	-11%	-9%
81	Cc1occc1C(=O)N1CCCC(Nc2ccc(F)c(F)c2)C1 (stereo unspecified)	-12%	?
82	Cc1c(C)n(CCCN(C)C)c2ncnc(NC3CCCCC3)c12	?	-26%
83	O=C1CCCCC1Nc1ccc(Cl)cc1 (stereo unspecified)	-10%	-1%
84	COc1cc(C)cc(C(=O)C=Cc2ccccc2)c1O	-5%	-6%

# Excerpt: entries 73 to 76
No.	Compound	VACV Venus inh	VACV mCherry inh
73	COC(=O)NNC(=O)c1cccc(C)c1	-11%	i
74	Cc1ccc2nc3c(cc(C#N)c(=O)n3-c3nnc(SCc4ccccc4Cl)s3)c(=O)n2c1	5%	0%
75	CC(NCCN(C)C)C1CCC2C3CCc4cc(O)ccc4C3CCC12C (stereo unspecified)	-18%	-16%
76	CCC1(C)CC(C#N)(C#N)C(=O)NC1=O (stereo unspecified)	-3%	11%

# More results:
No.	Compound	VACV Venus inh	VACV mCherry inh
85	O=C(CNC1=NCCC1)c1ccc2c(c1)OCCO2	-13%	nt
86	O=C(Cc1csc(Nc2nc(=S)[nH]c3ccccc23)n1)NCc1ccc(Cl)cc1	-6%	0%
87	Cc1cccc(OCc2nc(C#N)c(NCc3ccc4c(c3)OCO4)o2)c1	-17%	i
88	O=C(CN1CC[C@@]2(O)CCCC[C@H]2[C@@H]1c1ccc(F)cc1)NCc1ccco1	-8%	-13%
89	O=[N+]([O-])c1ccccc1S(=O)(=O)NCCSc1ccccc1	-11%	?
90	CCCC(=O)N(Cc1cc(=O)[nH]c2ccccc12)c1ccccc1C	-8%	-8%
91	CCC(=O)OC1(c2ccccc2)C(C)CN(C)CC1C (stereo unspecified)	-11%	-2%
92	CCCNC(=O)CN1C(=O)NC(c2ccccc2)(c2ccccc2)C1=O	-14%	5%
93	CCCCn1cc(S(=O)(=O)c2ccc(CC)cc2)c(=O)c2cc(F)c(N3CCCC(C)C3)cc21 (stereo unspecified)	-18%	-7%
94	N=C1C(=O)OCC1c1ccccc1NC(=O)CN1CCOCC1 (stereo unspecified)	-1%	-11%
95	Cc1ccc(C)c(NC(=S)NCc2ccc3[nH]c4c(c3c2)CCCC4)c1	-13%	-22%
96	C=CCOc1ccc(C=Nc2ccc(Cl)cc2)c(O)c1	-17%	-2%
97	O=c1cc(-c2ccccc2)[nH]n1-c1nc2ccccc2[nH]1	-28%	-29%
98	Cc1cccc(N2CN(Cc3ccco3)CNC2=S)c1C	-10%	-7%
99	CC(C)(C)NC(=O)c1nc2nc(-c3ccccc3)cc(C(F)(F)F)n2n1	-17%	-14%
100	CC1CN(C(=O)COC(=O)/C=C/c2ccc(C(F)(F)F)cc2)CC(C)O1 (stereo unspecified)	?	-29%
101	CCN1CCCC1CNC(=O)c1cnn(-c2nccc(-c3ccccc3F)n2)c1C (stereo unspecified)	5%	-3%
102	CC(C)Cn1c(=O)c2c(nc3n2CCCN3CCc2ccccc2)n(C)c1=O	?	nt
103	O=C(Nc1nnc(C2=COCCO2)o1)c1cccc(F)c1	-4%	-25%
104	O=C(CCc1nc2ccccc2c(=O)[nH]1)Nc1ccc(F)cc1	-10%	-1%
105	Cc1cc(C(=O)CN2C(=O)c3cccc(N)c3C2=O)c(C)n1Cc1cccs1	-18%	?
106	Cc1nn(CC(=O)NC2C(=O)N3C(C(=O)O)=C(CSc4nnnn4C)CSC23)cc1Br (stereo unspecified)	1%	i
107	CC(C)CNC(=S)NC(=O)c1ccc(Cl)cc1	-17%	-15%
108	N#CC1(NC(=O)CN2c3cccc4cccc(c34)S2(=O)=O)CCCCC1	-18%	-5%
109	CC1=C(C(=O)Nc2ccccc2)C(c2ccc(C(C)C)cc2)N2C(=O)CSC2=N1 (stereo unspecified)	-24%	-9%
110	Clc1cccc(-c2ccc(/C=N/n3cnnc3)o2)c1	-14%	-14%
111	NC(=O)COC(=O)c1ccc(Cl)c(S(=O)(=O)N2CCCCCC2)c1	-22%	-23%
112	COc1cccc(C2CC(c3ccc(Br)cc3)=NN2C(=O)c2ccncc2)c1OC (stereo unspecified)	?	14µM*
